# ugtP null kill: growth inhibition of ugtP-null S. aureus, primary screen, RN4220 ugtP deletion, OD600 | 16 h; some inactives read as strong as hits | growth inhibition, % (test concentration not listed) | actives 0.54% (n = 330,000) | AID 1259309, 2017;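 active means z-score under -3 and OD600 up to 0.15 on both plates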;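 further: plate controls were untreated wells for no effect and antibiotic for full effect; wells of about 80 µL received 100 nL stock; the first replicate is given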
# PrP 5UTR inh: inhibition of PrP 5' UTR reporter expression; inhibition, % (test concentration not listed); AID 488862, 2010; cell-based PrP 5' UTR mRNA reporter, plate reader; actives 0.35% (n = 340,000);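 active means every replicate at 50% or more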;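 further: 0 = median of the neutral control wells; tested in H4 reporter cells; numbers are from one replicate; inactives centre near -14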
# BJeLR lethal: MLPCN primary cell-based screen for lethality selective to Ras in HRASV12 cells. BJeLR (HRASV12) viability, CellTiter-Glo ATP luminescence, 48 h; reference of the scale not given here. inhibition, % (test concentration not listed). actives 0.17% (n = 300,000). AID 1554, 2009;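 active means replicate mean above 50%; inconclusive means above 50% but judged a plate artefact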;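 further: 50 nL library stock added to about 25 µL; numbers are from one replicate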
# Bead autofluor: flagged as autofluorescent in microsphere protease counterscreen. fluorescence intensity (concentration not given with the values). actives 3.1% (n = 360,000). compound autofluorescence counterscreen, microsphere flow cytometry; stronger effect = higher value;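 active means at least 3 SD above the mean of all compounds, about 16000 in these data; inconclusive means too few beads counted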;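 further: 100 nL of 1 mM stock went into each well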
# Sa RN4220 lethal: growth inhibition of S. aureus RN4220, primary screen, OD600; 16 h; AID 1259311, 2017; actives 0.33% (n = 330,000); inhibition, % (no concentration beside the values);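 active means z-score of -3 or lower and OD600 up to 0.18 on both plates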;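 further: plate controls were untreated cells for no effect and reference antibiotic for full effect; stock transfer was 100 nL into about 80 µL; one replicate is shown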
# Mtb hypoxia rep: PubChem AID 1159583. M. tuberculosis hypoxia-regulated fluorescent reporter, fluorescence. actives 0.1% (n = 300,000). fluorescence inhibition, % (concentration not given with the values);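 active means 35 to 45% if threefold the growth effect, above 45% if 1.5-fold the growth effect; inactive means the rest, general growth blockers included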;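 further: wells of about 50 µL received 100 nL stock; 0% = vehicle wells and 100% = reference inhibitor wells; whole bacteria with a GFP reporter of the hypoxia response; strong numbers were not always called active; many hits fall short of the cut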
# Mtb hypoxia rep growth: recorded beside Mtb hypoxia rep, whose call it bears; growth inhibition, %; measured here: M. tuberculosis growth (absorbance);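 0% = vehicle and 100% = reference antibiotic; read after six days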
# * marks the source's active call; other numbers are inactive results; ? = inconclusive; . = no result given; & = joins results of further samples.
# Values in the order – Bead autofluor, ugtP null kill, PrP 5UTR inh, BJeLR lethal, Mtb hypoxia rep growth, Mtb hypoxia rep, Sa RN4220 lethal
CCOC(=O)C(C)n1cnc2c(oc3ccccc32)c1=O (stereo not given)
  10091, -5, -27, 4, -1, -4, -1.7
CCC(C(=O)Nc1cc(Cl)c(OC)cc1OC)c1ccccc1 (stereo not given)
  3261, 7, -26, -12, -3, -4, 9.7
COc1cccc(C(O)Cc2nc3ccccc3n2C)c1OC (stereo not given)
  4315, 7, -21, 6, 25, 9, 0.5
CCn1c(SCC(=O)N2CCN(C)CC2)nc2c1c(=O)n(C)c(=O)n2C
  5846, 3, 0, -13, 4, 3, 3.1
O=C(COc1cc(F)ccc1[N+](=O)[O-])Nc1ccc(N2CCOCC2)cc1
  3815, 12, -5, 5, 5, -1, 1.5
Cc1ncc(N=Nc2ccccc2Cl)c(-c2ccccc2)n1
  2713, -6, -5, 11, ., ., -5.2
Cc1ccc(CNC(=O)CO/N=C/c2ccc(C(C)(C)C)cc2)cc1
  2456, ., -37, -6, ., ., .
Cc1c(C(=O)O)oc2ccc(S(=O)(=O)NCc3ccc(F)cc3)cc12
  24054*, 4, -8, 5, 2, 0, 0.8
Cc1c(NC(=O)CSc2nc3c(cnn3-c3ccccc3)c(=O)[nH]2)c(=O)n(-c2ccccc2)n1C
  2713, 2, -16, 0, 0, 14, 3.1
CC1(C)Oc2cc3oc(-c4cc(O)cc(O)c4)cc3cc2CC1O (stereo not given)
  5010, -4, 71*, -13, ., ., 15
N#CC1=C(N)Oc2n[nH]c(-c3ccc(F)cc3)c2C1c1cccc(OC(=O)N2CCOCC2)c1 (stereo not given)
  ., -2, -3, -1, ., ., 0.7
CCOC(=O)C1C2COc3ccc(Br)cc3C2N2C(=O)N(c3ccc(C(F)(F)F)cc3)C(=O)[C@]12C (stereo not given in full)
  ., 1&-17, ., ., 4&-5, -1&-13, -10&-4.7
COc1ccccc1CNC(=O)c1ccc(CS(=O)(=O)c2ccccc2OC)o1
  22833*, -6, -24, -1, 3, 2, 1.9
O=C(Cc1c(F)cccc1Cl)N1CCN(S(=O)(=O)c2cccc(F)c2)CC1
  6166, 4, 3, 2, -2, 15, 4.4
O=C(Nc1ccc(Oc2cccnc2)cc1)C1CCN(Cc2cccc(Cl)c2)CC1
  6865, -5, 3, 4, 0, 3, -6.6
CCOC(=O)c1c(NC(=O)CN2C(=O)NC(C)(c3ccc(OC(F)F)cc3)C2=O)sc(C)c1C (stereo not given)
  2600, 7, -27, -5, 7, 15, -0.8
O=C(CCCN1C(=O)NC2(CCCC2)C1=O)Nc1ccc(Cl)c(S(=O)(=O)N2CCOCC2)c1
  5125, 2, -3, ., 11, 4, 1.8
Cn1cccc1C(=O)NC(=O)CSc1nnc(C2CC2)n1-c1ccccc1
  6679, 1, -19, 2, 3, 4, 5.0
O=C(NCc1ccccn1)C(=O)NCC1OCCN1S(=O)(=O)c1ccc([N+](=O)[O-])cc1 (stereo not given)
  4531, 4, 0, -4, 15, 17, 10
Oc1c(Cl)c(Cl)c2ncccc2c1Cl
  3942, 5, -10, ., 8, 4, 25
Cc1ccc(CCNC(=O)C2CCN(S(=O)(=O)c3c(C)nn(C)c3C)CC2)cc1
  6828, -10, -31, -5, ., ., 2.2
CCC(Oc1ccccc1)C(=O)Nc1cc(C(F)(F)F)ccc1N1CCOCC1 (stereo not given)
  ?, -4, 7, 15, -8, -3, -8.5
COC(=O)[C@@](C)(O)C1(C(=O)SC(C)(C)C)CC1
  2940, -3, 16, 5, -8, -1, 1.0
COc1cc(C=NNC(=O)Cc2csc(C)n2)ccc1OCC(C)C
  ., -2, ., ., 3, -3, 2.6
CC(Oc1ccc([N+](=O)[O-])cc1)C(=O)NCCCN1CCOCC1 (stereo not given)
  5115, 6, -19, -9, -23, 5, 1.0
CC1CC(C)(C)CC2(C1)NC(=O)N(CC(=O)N(Cc1ccccc1)c1ccccc1)C2=O (stereo not given)
  5671, 3, 6, 1, 7, 5, -3.6
C=CCCC(=O)NC1CC(C)(C)Cc2c1cnn2-c1ccc(OC)cc1 (stereo not given)
  4092, 14, -7, 3, -3, 0, 3.8
O=C(CN1C(=O)C2CCCCC2C1=O)Nc1nccs1 (stereo not given)
  3220, 2, -9, 0, 8, 17, 6.2
COCCn1c(SCC(=O)Nc2ccc(OC)c(S(N)(=O)=O)c2)nc2ccccc21
  4453, 3, -6, 10, 0, 15, 4.3
COc1ccc(C2CC(c3ccccc3)Nc3nc(NS(C)(=O)=O)nn32)cc1 (stereo not given)
  4381, 0, -8, 3, 11, -2, 0.4
COc1ccc([N+](=O)[O-])c(OC)c1C(=O)Nc1ccc(F)cc1F
  4514, 7, 0, 9, 9, 10, 2.7
Cc1cc(C)c(C#N)c(SCC(=O)Nc2cccc(S(=O)(=O)N3CCCC3)c2)n1
  5379, 1, -5, ., -2, -6, 1.4
O=C(NNS(=O)(=O)c1ccc(F)cc1)c1ccc(S(=O)(=O)N2CCCCC2)cc1
  2529, ., -15, 6, ., ., .
CCOC(=O)c1sc2nc(CC(=O)OC)nc(NCCN3CCOCC3)c2c1C
  3541, -6, -25, -3, 7, -1, -19
CCOc1ccccc1NC(=O)C(=O)NCC1CCCN1CC (stereo not given)
  7758, 5, -7, 1, 4, 5, 3.0
Clc1nc(Cl)nc(-c2cn(-c3ccccc3)c3ccccc23)n1
  ., -2, ., -9, 10, 12, 7.3
COc1ccc(NC(=O)CNC(=O)c2sc3ccccc3c2Cl)c(OC)c1
  8520, -1, -17, ., 4, 11, 1.9
CCn1c(SCC(=O)NCCc2ccc(Cl)cc2)nnc1-c1cccs1
  4913, 1, -33, 10, 10, 7, -4.7
O=C(OCC(=O)N1CCc2ccccc21)C1=COCCO1
  14520, 0, 1, -12, -1, 8, 1.9
COc1ccc2oc(-c3ccccc3)c(C(=O)N(C)C)c2c1
  5188, -1, 14, -19, 2, -2, 5.1
CC(=O)NCCC(=O)N1CCCC(N(C)CCc2ccccc2)C1 (stereo not given)
  3878, -3, -20, -11, -2, -5, 0.7
CN(C)CCCn1c2c(c(SCC(=O)Nc3ccc4c(c3)OCO4)nc1=O)CCC2
  5269, 7, -28, 1, 9, 1, 1.7
COc1cc(NC(=O)COC(=O)CC(NC(C)=O)c2ccccc2)cc(OC)c1 (stereo not given)
  3922, 11, -24, 10, -6, 3, 2.3
CCN(CC(=O)NCc1cccs1)C(=O)c1ccc(C)o1
  3468, -3, -11, ., 2, -28, -0.5
N#Cc1c(-c2ccc(F)cc2)cc(C2CC2)nc1SCC(=O)c1cccs1
  2053, 1, 18, -7, 3, 5, 3.2
NC(=S)Nc1cccc(O)c1
  3734, 3, 6, 5, 5, 8, -2.5
Cc1ccc(CCNC(=O)C2=CCN(S(=O)(=O)c3ccccc3)CC2)cc1
  5426, 7, -14, -8, 9, 14, 1.8
O=C(CSc1nc2ccc([N+](=O)[O-])cc2[nH]1)NCCc1ccccc1
  20820*, -9, -11, 10, 2, 5, 1.5
CC(CCc1ccc2c(c1)OCO2)=NNC(=O)c1ccc(C)cc1C
  ., 4, ., ., 7, 8, 4.9
COc1ccc(NC(=O)c2ccc(S(=O)(=O)N3CCCCC3)cc2)cc1OC
  ., -3, ., ., 12, 4, -2.0
Fc1ccc(CN2CCCN(Cc3nc(-c4ccc5c(c4)OCO5)no3)CC2)cc1
  2533, 27, -21, -1, 4, 14, 0.2
N#Cc1ccccc1N=C1CCCN1Cc1ccccc1
  3881, 5, -13, -23, ., ., 2.4
O=C(CN1CCOCC1)Nc1nc(-c2ccccc2)cs1
  4108, 2, -24, -6, 5, 5, 2.2
O=C(CCCCCn1c(=O)[nH]c2ccccc2c1=O)NCCc1c[nH]c2ccccc12
  6026, -12, -30, -7, 6, 13, 7.7
CC1(C)O[C@@H]1COc1c2ccoc2cc2oc(=O)ccc12
  3446, ., -3, -3, ., ., .
CCN1C(=O)C2C(c3ccc(-c4cccc(Cl)c4)cc3)N[C@@](C)(C(=O)OC)C2C1=O (stereo not given in full)
  ., -7, ., ., 17, 9, 0.0
S=C(NCCSCc1ccc(Cl)cc1)Nc1ccccc1
  1972, -8, -17, 9, 7, 10, 17
Cc1nc(N2CCN(Cc3ccc4c(c3)OCO4)CC2)[nH]c(=O)c1C
  3894, 17, -11, 10, 5, 1, 4.7
O=C(COC(=O)c1ccc([N+](=O)[O-])o1)Nc1cccc(S(=O)(=O)N2CCOCC2)c1
  8348, 4, -21, -5, 4, 4, 2.7
CC1CCN(c2nc(N(C)c3ccccc3)nc(N)c2[N+](=O)[O-])CC1
  ., 7, -26, 8, -11, -15, -5.0

# A different layout for some results above.
structure	Bead autofluor	ugtP null kill	PrP 5UTR inh	BJeLR lethal	Mtb hypoxia rep growth	Mtb hypoxia rep	Sa RN4220 lethal
Cc1nc(N2CCN(Cc3ccc4c(c3)OCO4)CC2)[nH]c(=O)c1C	3894	17	-11	10	5	1	4.7
O=C(COC(=O)c1ccc([N+](=O)[O-])o1)Nc1cccc(S(=O)(=O)N2CCOCC2)c1	8348	4	-21	-5	4	4	2.7
CC1CCN(c2nc(N(C)c3ccccc3)nc(N)c2[N+](=O)[O-])CC1	.	7	-26	8	-11	-15	-5.0

# Next section
# Values in the order – Bead autofluor, ugtP null kill, PrP 5UTR inh, BJeLR lethal, Mtb hypoxia rep growth, Mtb hypoxia rep, Sa RN4220 lethal
Cn1c(CN2CCN(C(=O)c3ccc(F)cc3)CC2)nc2cc([N+](=O)[O-])ccc21
  2698, -3, -24, 17, 10, 8, 3.1
NC(N)=N/N=C/c1cccc([N+](=O)[O-])c1O
  2403, ., -14, -5, ., ., .
Cc1nnc(NC(=O)c2c(F)c(F)c(F)c(F)c2F)s1
  9556, -2, -19, 9, 18, 18, 1.6
C=CCn1c(-c2cccnc2Cl)nc2cc(Cl)c(Cl)cc21
  10599, -13, -24, 6, 8, 10, 2.9
Nc1ccc(C(=O)N2CCN(S(=O)(=O)c3ccc4c(c3)OCCCO4)CC2)cc1[N+](=O)[O-]
  6643, 4, -4, ., -5, 3, 0.7
Cc1ccc(S(=O)(=O)NC(C)(C)C)cc1C(=O)OCC(=O)N1CCCC1=O
  ?, 2, -7, -1, 6, 4, -1.8
COc1ccc([N+](=O)[O-])cc1NC(=O)Nc1ccccc1
  11004, 83*, -3, 1, -4, -8, 95*
O=C(CN1CCN(c2ccccn2)CC1)N1CC(O)CO1 (stereo not given)
  3858, 3, -47, 4, 3, 10, 1.6
NC(=O)c1ccccc1N=Cc1ccccn1
  ?, 10, -8, 2, 1, 13, 4.2
Cc1ccccc1NC(=O)c1cccc(N2C(=O)C3CCC(C)CC3C2=O)c1 (stereo not given)
  3209, 2, -7, -8, 9, -3, 5.0
Cc1ccc(C)c(N(C(=O)CNC(=O)c2ccco2)C(C(=O)NC2CCCC2)c2ccncc2)c1 (stereo not given)
  5549, 5, -21, -1, 8, 8, 1.8
CC(C)Oc1cccc(C(=O)C2CCCN(C(=O)CCn3cnnn3)C2)c1 (stereo not given)
  4550, 5, -4, 4, 5, 9, 7.8
Cc1ccc(NC(=S)NCCN2CCOCC2)cc1C
  20237*, -1, -14, -7, 1, -1, 3.1
COc1ccc2ccccc2c1C=NNC(=O)c1ccc([N+](=O)[O-])cc1
  ., 7, ., ., 7, 5, 2.5
CN(CCOCCOc1ccc(F)cc1)Cc1ccccc1
  3788, 2, 2, -1, 7, 13, 5.0
O=C(NN=Cc1ccco1)c1cccc(NC(=O)c2ccccc2Cl)c1
  ., 10, ., ., 3, 4, 2.4
COc1cccc(CN2CCN(CC#Cc3ccccc3)CC2CCO)c1 (stereo not given)
  3399, -3, 2, 7, -10, -7, -1.3
CCN1C(=O)[C@H]2[C@@H](c3ccc(C)cc3)N3C(=O)N(c4ccc(OC)cc4)C(=O)[C@@]3(Cc3ccc(Cl)cc3)[C@H]2C1=O
  3897, ., -4, 6, ., ., .
CCOC(=O)CC(N)c1ccc2c(c1)OCO2 (stereo not given)
  ., 1, ., 14, 6, 5, 3.0
O=C1CC(NS(=O)(=O)c2ccccc2)CN1c1ccc2c(c1)OCCO2 (stereo not given)
  ?, 7, 2, -7, 4, 13, 4.8
CCN(Cc1nc2cc(Cl)ccc2c(=O)[nH]1)C(=O)c1cc(C2CC2)nn1-c1ccccc1
  5617, -15, -25, ., 8, 13, -3.1
CCCn1c(SC/C(O)=C(\C#N)c2nc3ccccc3[nH]2)n[nH]c1=O
  2296, 1, -18, 1, 7, 7, -0.1

# Screening results from PubChem.
